# Source: PubChem
# SmPrx2 inh: Schistosoma Mansoni Peroxiredoxins (Prx2) | S. mansoni Prx2 activity coupled to TGR/GSH (TGR is thioredoxin glutathione reductase), NADPH fluorescence loss, qHTS; some inactives read as strong as hits | Potency, µM | 65,000 tested, 0.07% active | Schistosoma mansoni peroxiredoxin 2 (Prx2) | AID 448, 2006; active means full or partial inhibition curve with a strong effect at the top dose; inconclusive means weaker partial or single-point curve; inactive means no accepted curve; also: series up to 57 µM; many of its hits are not listed in these tables
#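 Prx2 activity was followed as the loss of NADPH fluorescence (ex 365/em 450 nm), read every 30 sec for 8 min after H2O2 start. The enzyme mix (50 nM Prx2, 25 nM TGR, GSH, NADPH; pH 7.4 phosphate buffer) was incubated with compound for 15 min at room temperature first.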
# LT uptake inh: qHTS Assay for Anthrax Lethal Toxin Internalization. Cells, anthrax lethal toxin internalization, FRET ratio (460/530). Potency, µM (highest dose often 40 µM), without a hit: at the highest dose activity change, negative = inhibition, actives largely listed as inhibitors. 70,000 tested, 0.67% active. AID 912, 2007; active = well fitted falling ratio curve with the 530 nm signal flat; inconclusive = other ratio curves, or a change in one channel alone; inactive = flat curves in the ratio and both channels; the % refers to the ratio; also: % is scaled to controls: 0 for no effect and ±100 for the full control effect; nearly all actives have a fitted effect of over 50% in size; tested in ME-180 cells; beta-lactamase reporter
# * = called active by the depositor; ? = inconclusive; · = not tested or not shown; & = joins results of further samples; [ ] = another dose, or the depositor's remark. Potency is read from the fitted curve at half-maximal effect. An excerpt (hit frequency here may not be typical).
No.	SMILES	LT uptake inh	SmPrx2 inh
1	CC(=O)Cc1nsc(NC(=O)c2cc(-c3cccc(C(F)(F)F)c3)oc2C)n1	-14%	>57
2	COc1cc(OC)cc(C(=O)NCCNC(=O)c2ccccc2)c1	3%	>57
3	Nc1ccc2[nH]cc(CCC(=O)O)c2c1	10%[8 µM]	>57
4	CCCn1c(C)nc2c(Nc3ccccc3)nc(C)nc21	1%	·
5	Cc1ccc(-n2ncc3c(=O)[nH]c(SCC(=O)N4CCN(c5ccccc5)CC4)nc32)cc1	-6%	>57
6	C=CCn1c(CSc2nc3ccccc3s2)nnc1SCC(=O)NCc1ccco1	-16%	·
7	Cc1ccc(NC(=O)Nc2ccc3c(c2)N(C)C(=O)CS3)nc1	-25%	>57
8	CN(C(=O)COc1ccccc1)c1nnc(-c2ccncc2)s1	-8%	>57
9	N#CCC(=O)N1CCCCCC1	-9%	>57
10	CCn1c(Cn2nnc(-c3ccccc3)n2)nnc1SCC(=O)N1CCOCC1	9%	>57
11	COc1ccc(CCC(=O)Nc2ccc3c(c2)OCCO3)cc1	-5%	>57
12	COCCN1Cc2cccc(C(=O)Nc3cccnc3)c2C1=O	-14%	>57
13	Cc1nn(-c2ccccc2)c2c1C(c1c(C)[nH]c(C#N)c1C)C(C#N)=C(N)O2 (centres undefined)	6%	>57
14	CCC1Oc2ccc(C)cc2N(Cc2cccc(C)c2)C1=O (centres undefined)	·	>57
15	Cc1cc(-c2ccccc2C(=O)O)on1	·	>57
16	Cc1ccc(-c2nnc3ccc(SCC(=O)N4CCCCC4)nn23)cc1	6%	>57
17	CC1CCCCC1NC(=O)Cn1nnc(-c2ccc(Cl)cc2)n1 (centres undefined)	-11%	>57
18	O=C(CC1COc2ccccc2O1)NC1CCCCC1 (centres undefined)	-6%	>57
19	CC(=O)Nc1ccc(S(=O)(=O)N2CCSC2c2ccccc2)cc1 (centres undefined)	-3%	>57
20	CC(C)C(=O)Nc1ccc(NC(=O)c2cc3ccccc3o2)cc1	-3%	>57
21	CCOC(=O)c1ccc(Nc2cc(C)nc3nc(C)nn23)cc1	9%	>57
22	CC(Sc1nc(N)cc(=O)[nH]1)C(=O)NC1CCCCC1 (centres undefined)	-3%	>57
23	Cc1nnc(SCC(=O)N2CCOCC2)n1C	3%	·
24	Cc1cc(Br)ccc1NC(=O)CCN1C(=O)c2ccncc2C1=O	17%	>57
25	OCCN(Cc1ccccc1)CC1CC2C=CC1C2 (centres undefined)	-11%	>57
26	O=S(=O)(Cc1ccccc1Cl)Nc1ccccn1	5%	>57
27	Cc1cccc(NC(=O)c2ccccc2Br)n1	-10%	>57
28	COc1ccc(NC(=O)C2CCCN(S(=O)(=O)c3c(C)n[nH]c3C)C2)cc1 (centres undefined)	-2%	>57
29	COc1ccc(CNCCNC(=O)c2nonc2N)cc1OC	-18%	>57
30	Cc1ccc2nc3c(cc2c1)CN(Cc1ccco1)C(=NCC1CCCO1)S3 (centres undefined)	-25%	>57
31	CC(=O)NCCNc1ncnc2ccc(-c3ccccc3C#N)cc12	-4%	>57
32	O=C(CCc1ccccc1)Nc1ccc(NC(=O)c2ccco2)nc1	-2%	>57
33	O=C(NCCC1=CCCCC1)NC1CCCCC1	-15%	>57
34	CCCCN1C(=O)NC(=O)C2(Cc3ccccc3N3CCOCC32)C1=O (centres undefined)	?	>57
35	COc1cccc(NC(=O)C2CCN(S(C)(=O)=O)CC2)c1	-9%	>57
36	Brc1ccc(Oc2cc(Br)c(Br)cc2Br)c(Br)c1	0.79µM*	·
37	O=c1oc2c(CN3CCOCC3)c(O)c(Cl)cc2c2c1CCC2	12%	·
38	O=C(O)c1ccc2c3c(ncnc13)-c1ccccc1C2=O	-1%	>57
39	CCOC(=O)C1CCN(C(=O)c2cccnc2)CC1	?	>57
40	C=CCn1c(SCC(=O)O)nnc1-c1cccc(Cl)c1	-5%	>57
41	Cc1cc(NC(=O)Cn2cnc3c(cnn3C(C)(C)C)c2=O)no1	3%	>57
42	Cc1nc2ccccc2c(=O)n1N	2%	>57
43	COC(=O)c1cc(NC2c3ccccc3C(=O)N2c2cccnc2)cc(C(=O)OC)c1 (centres undefined)	5%	>57
44	CCN(CCNC(=O)C1CCN(S(=O)(=O)c2cccc3nsnc23)CC1)c1ccccc1	9%	>57
45	CCOC(=O)O[C@@H](C)OC(=O)[C@@H]1N2C(=O)[C@@H](NC(=O)[C@@H](N)c3ccccc3)[C@H]2SC1(C)C	4%[3.58 µM]	>57
46	CSc1nnc2c3ccccc3n(CCc3ccccc3)c2n1	-4%	·
47	COc1ccc(OC)c(S(=O)(=O)NCc2cn3ccsc3n2)c1	3%	>57
48	COc1ccc(CN(C2CCCC2)S(=O)(=O)c2ccc(-n3cnnn3)cc2)cc1	?	>57
49	O=C(CN1CCOCC1)N1CCN(c2nnc(-c3ccccc3)c3ccccc23)CC1	6%	>57
50	C=CCn1c(SCC(=O)N(CC)CC)nc(O)cc1=O	-3%	·
51	Cc1cc(C)cc(NC(=O)CSc2nnc(CNC(=O)c3cccs3)o2)c1	2%	>57
52	O=C(NCCC1=CCCCC1)C1CCN(S(=O)(=O)c2cccs2)CC1	9%	>57
53	O=C(Nn1cnnc1)c1cc2cc(Br)ccc2oc1=O	2%	>57
54	Cc1nc(SCC(=O)NCC2CCCO2)c2oc3ccccc3c2n1 (centres undefined)	7%	>57
55	COC(=O)N1CC(C)N(C(=O)OC)CC1C (centres undefined)	-3%	·
56	CCCSc1nnc(Sc2nnnn2-c2ccccc2)s1	?	>57
57	CN1CCN(S(=O)(=O)c2ccc(-c3ccccc3)cc2)CC1	-8%	>57
58	COc1cccc(-n2nnc3c(=O)n(CC(=O)NCC4CCCO4)cnc32)c1 (centres undefined)	-5%	·
59	Cc1cccc(CNc2ncnc3ccc(-c4ccoc4)cc23)c1	2%	>57
60	Cc1ccc(CN2CCN(C(=O)C3CCCO3)CC2)cc1 (centres undefined)	-14%	>57

# (further entries)
No.	SMILES	LT uptake inh	SmPrx2 inh
61	O=c1c(CCc2ccccc2)nc2cnc(N3CCOCC3)nc2n1CCc1ccccc1	-27%	>57
62	CC(=O)C1=C(N2CCCCC2)CCC1=O	3%	·
63	COc1ccc(-c2nc(CS(=O)CC(=O)N3CCc4ccccc4C3)c(C)o2)cc1 (centres undefined)	?	>57
64	O=C(CCNS(=O)(=O)c1ccc(Br)s1)NC1CCCC1	0%	>57
65	COc1ccc(C)cc1NC(=O)CN(c1ccccc1)S(C)(=O)=O	-7%	>57
66	O=c1cc(-c2ccccc2)oc2cc(O)c(O)c(O)c12	1.3µM*	>57&>57
67	O=C(Nc1cccnc1)c1cc2nc(C3CC3)cc(C(F)(F)F)n2n1	3%	>57
68	NS(=O)(=O)c1ccc(NCc2cnc3ccccc3n2)cc1	-8%[8 µM]	>57
69	COC(=O)C1CCCN1C(=O)c1cccs1 (centres undefined)	-2%	>57
70	NCCC[C@@H](CC(=O)N[C@@H]1CCCC[C@H]1C(=O)N[C@H](CC(=O)N[C@@H](CCC(=O)O)CC(=O)O)Cc1c[nH]c2ccccc12)NC(=O)C[C@H](Cc1c[nH]c2ccccc12)NC(=O)[C@@H]1CNCC[C@H]1N	1%	>57
71	Nc1nc(N)c2nc(-c3ccccc3)c(N)nc2n1	?	>57&>57
72	COc1cc2nc(N3CCN(C(=O)[C@H]4CCCO4)CC3)nc(N)c2cc1OC	?	>57&>57
73	CCC(NS(=O)(=O)c1ccc(C)cc1)C(=O)Nc1ccc(NC(C)=O)cc1 (centres undefined)	-9%	>57
74	CCOc1cc(N2CCOCC2)c(OCC)cc1NC(=O)COC(=O)CCc1c[nH]c2ccccc12	2%	>57
75	COCCn1c(=O)c(C)nc2cncnc21	-2%	>57
76	Cc1ccc(N2CCn3c2nc2c3c(=O)n(CCc3ccccc3)c(=O)n2C)cc1	7%	>57
77	COc1cccc(C2C(C#N)=C(N)OC3=C2C(=O)CC(c2ccco2)C3)c1OCc1ccc(F)cc1 (centres undefined)	?	>57
78	O=C(c1cccc(F)c1)N1CCC2(CC1)CCN(c1ccccc1)CC2	?	>57
79	COc1ccc(CNC(=O)C2CC(=O)N(c3ccc(OCC(=O)N4C(C)CCCC4C)cc3)C2)cc1 (centres undefined)	5%	>57
80	CCOc1ccc(-n2cc(C(=O)N3CCCCCC3)c3cc(OC)c(OC)cc3c2=O)cc1	9%	>57
81	Nc1nc2nccc(-c3ccc(Cl)cc3)n2n1	-4%	·
82	COc1ccc2c(c1)CCc1c(C(=O)NCCCn3ccnc3)noc1-2	13%	>57
83	O=C(O)/C=C\C(=O)O	-7%	·
84	COc1cc(CN2CCN(S(=O)(=O)c3ccc(F)cc3)CC2)cc(OC)c1OC	8%	>57
85	O=C(COC(=O)CCCc1c[nH]c2ccccc12)Nc1ccc2c(c1)OCO2	?	>57
86	CCOc1cc(NC(=O)c2ccco2)c(OCC)cc1NC(=O)Cc1cccc(OC)c1	-19%	>57
87	Nc1c2c(nc3ccn(Cc4ccccc4)c(=O)c13)CCC2	-2%	>57
88	CCCCNC(=O)OCCNC(=O)NC	-9%	>57
89	N#CC1=C(SCC(=O)NC2CC2)NC(=O)C(C#N)C12CCCCC2 (centres undefined)	-20%	>57
90	O=C(Nc1ccc(Br)cc1F)C1CCN(c2nnc(-n3cccc3)s2)CC1	?	>57

# By substructure, those above containing a CF3 group
No.	SMILES	LT uptake inh	SmPrx2 inh
1	CC(=O)Cc1nsc(NC(=O)c2cc(-c3cccc(C(F)(F)F)c3)oc2C)n1	-14%	>57
67	O=C(Nc1cccnc1)c1cc2nc(C3CC3)cc(C(F)(F)F)n2n1	3%	>57

# (continued)
No.	SMILES	LT uptake inh	SmPrx2 inh
91	C/C(CC1(O)C(=O)N(C)c2ccccc21)=N\O (centres undefined)	-1%	>57
92	CCN1CCCC1Cn1c(-c2ccccc2)nc2c(NC3CCCCC3)nc(C)nc21 (centres undefined)	-17%	·
93	CN(C)c1cccc(C(=O)NCC2CCCO2)c1 (centres undefined)	-6%	·
94	CCn1cc(C(=O)NC2CCCCC2C)c(=O)c2ccc(C)nc21 (centres undefined)	-2%	>57
95	COC(=O)CSc1nnc(SCc2ccc(OC)cc2)s1	-9%	>57
96	CCOC(=O)C1=C(N)Oc2cc(O)ccc2C1c1cccnc1 (centres undefined)	-7%	>57
97	O=C(CN1CCOCC1)NCc1ccccc1	?	>57
98	Cn1c(=O)c2c(nc(CN3CCN(c4ccccc4)CC3)n2Cc2ccccc2F)n(C)c1=O	·	>57
99	CS(=O)(=O)N(CC(=O)NCC1CCCO1)c1ccc(Cl)c(Cl)c1 (centres undefined)	-20%	·
100	CC(NS(=O)(=O)c1ccccc1)C(c1cccs1)N1CCN(C)CC1 (centres undefined)	-8%	>57
101	Cc1cnc(C(=O)Nc2nnc(C)s2)cn1	-7%	>57
102	CC(C)CCSc1nc2c(c(=O)[nH]c(=O)n2C)n1CCCc1ccccc1	-8%	>57
103	COc1cc(CNC(=O)CCCC/C=C/C(C)C)ccc1O	-5%	·
104	CC(NC(=O)Nc1ccccc1O)(C(F)(F)F)C(F)(F)F	-2%	>57
105	O=C(Nc1cccc(F)c1)N1CC[C@@]2(CCCN(C(=O)c3cccc(F)c3)C2)C1	?	>57
106	CCOC(=O)C1CCCN(C(=O)c2ccc(CS(=O)(=O)c3ccc(Br)cc3)o2)C1 (centres undefined)	?	>57
107	CCCC(=O)N(Cc1cc2cccc(C)c2[nH]c1=O)c1ccccc1OC	-22%	>57
108	Cc1cccc(N2CCN(CC(=O)NCC3CCCCC3)CC2)c1C	?	>57
109	O=C(CSc1nnc(-c2ccccc2)o1)NC1CCCCC1	-9%	>57
110	Cc1ccccc1Cn1c(=O)c2c(nc3n2CCN3Cc2ccco2)n(C)c1=O	9%	>57
111	CCCN(CCC)c1ncnc2c1cnn2-c1ccc(OC)cc1	?	>57
112	CCOC(=O)Cc1csc(NC(=O)CSc2ncnc3c2cnn3-c2ccc(OC)cc2)n1	?	>57
113	N#CC1=C(N)OC2=C(CCC/C2=C/c2ccoc2)C1c1ccoc1 (centres undefined)	-10%	>57
114	CCOC(=O)c1nnn(-c2nonc2-c2ccccc2)c1C	1%	>57
115	COc1ccc(C(=O)Cn2nnc(-c3ccc(N4CCOCC4)cc3)n2)cc1OC	11%	>57
116	COc1cc(SC)ccc1C(=O)NC1CCCCC1	-12%	>57
117	Cc1cc(C)n2c(Br)c(CSc3nc4ccccc4o3)nc2n1	16%	>57
118	COc1ccc(NC(=O)CSC2CCCCC2)cc1	-2%	>57
119	CCC(C)NC(=O)CSc1nc2ccc(N3CCOCC3)cc2c(=O)n1CCc1ccccc1 (centres undefined)	?	>57

# 4 entries from above, set out differently:
104) CC(NC(=O)Nc1ccccc1O)(C(F)(F)F)C(F)(F)F
  LT uptake inh: -2%	SmPrx2 inh: >57

105) O=C(Nc1cccc(F)c1)N1CC[C@@]2(CCCN(C(=O)c3cccc(F)c3)C2)C1
  LT uptake inh: ?	SmPrx2 inh: >57

106) CCOC(=O)C1CCCN(C(=O)c2ccc(CS(=O)(=O)c3ccc(Br)cc3)o2)C1 (centres undefined)
  LT uptake inh: ?	SmPrx2 inh: >57

107) CCCC(=O)N(Cc1cc2cccc(C)c2[nH]c1=O)c1ccccc1OC
  LT uptake inh: -22%	SmPrx2 inh: >57
